# Screens as filed in PubChem BioAssay.
# Tgondii IFNg: T. gondii growth inhibition with IFN-gamma, primary screen, cell-based; Toxoplasma gondii growth in IFN-gamma-treated host cells; hits give low values; reference of the scale not given here; activity change, negative = inhibition, %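 (about 20 µM by stock and volumes)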; 69,000 tested, 3.8% active; AID 1259416, 2018;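 active = below -70%; inconclusive = fit judged invalid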;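 also: host cells are HeLa cells infected with Toxoplasma gondii; parasite growth read as luciferase light; one replicate is shown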
# An asterisk follows results filed as active; ? = inconclusive; & = joins results of further samples. These rows are one share of the data, so the mix of outcomes need not match the whole.
C[C@@H]([C@@H](O)c1ccc(O)cc1)N1CCC(O)(c2ccccc2)CC1
  Tgondii IFNg: -15&10

O=C(O)Cn1nnc(-c2cc(N3CCC(Oc4cc(F)ccc4Br)CC3)no2)n1
  Tgondii IFNg: -5

CN(C)C(=O)[C@H](O)[C@H](Cc1ccccc1)NC(=O)c1cc2cc(Cl)ccc2[nH]1
  Tgondii IFNg: 21

COC(=O)N1CCN(Cc2cccc(NC(=O)Nc3ccc(C)nc3)c2F)CC1
  Tgondii IFNg: 17

COc1ccc(-c2cc(=O)c3c(OC)c(OC)c(OC)cc3o2)cc1OC
  Tgondii IFNg: -29

CCOC(=O)c1nc(Nc2cc(C)ccc2C)c2ccccc2n1
  Tgondii IFNg: -26

C[C@H](Nc1ncnc2nc[nH]c12)c1cc2cccc(Cl)c2c(=O)n1-c1ccccc1
  Tgondii IFNg: 10

COc1ccc(NS(=O)(=O)c2sc3ccc(Cl)cc3c2C)cc1N1CCNCC1
  Tgondii IFNg: -1

COc1cccc2c1c(O)c(C(=O)N(C)c1ccc(C(F)(F)F)cc1)c(=O)n2C
  Tgondii IFNg: 12

CN(C)C(=O)c1ccc(S(=O)(=O)c2ccc(NC(=O)C(C)(O)C(F)(F)F)c(Cl)c2)cc1 (configuration not stated)
  Tgondii IFNg: -28

COc1ccc(CN2CCN(C(c3ccc(F)cc3)c3ccc(F)cc3)CC2)c(OC)c1OC
  Tgondii IFNg: -50

O=C(Nc1ccc(C(=O)O)c(O)c1)c1ccccc1
  Tgondii IFNg: 31&17

COc1cc(C(=O)O)ccc1NC(=O)[C@@H]1N[C@@H](CC(C)(C)C)[C@](C#N)(c2ccc(Cl)cc2F)[C@H]1c1cccc(Cl)c1F
  Tgondii IFNg: -80*

O=P(O)(O)OC(CO)CO
  Tgondii IFNg: 20

COc1ccc(-c2cc(=O)c3c(O)c(OC)c(OC)c(OC)c3o2)cc1OC
  Tgondii IFNg: -10

CC(C)n1nc(-c2ccc3oc(N)nc3c2)c2c(N)ncnc21
  Tgondii IFNg: -83*

O=c1cc(-c2ccc(O)cc2)oc2cc(O[C@@H]3O[C@H](CO)[C@@H](O)[C@H](O)[C@H]3O[C@@H]3OC[C@](O)(CO)[C@H]3O)cc(O)c12
  Tgondii IFNg: 3

COc1ccc2nc(NC(=O)Nc3ccccc3)sc2c1
  Tgondii IFNg: 278

CN1CCN(C2CCN(C(=O)Nc3cc(Oc4ccc(NC(=O)C5(C(=O)Nc6ccc(F)cc6)CC5)c(F)c4)ccn3)CC2)CC1
  Tgondii IFNg: -69

Cc1cccc(C)c1NC(=O)C1CCCCN1C (configuration not stated)
  Tgondii IFNg: 11&-57&14

CN(C)N(C)C(=O)[C@@]1(Cc2ccccc2)CCCN(C(=O)[C@@H](Cc2c[nH]c3ccccc23)NC(=O)C(C)(C)N)C1
  Tgondii IFNg: 29

CC(C)Oc1ccc(-c2cnc3c(-c4ccnc5ccccc45)cnn3c2)cc1
  Tgondii IFNg: -76*

CN[C@H]1CN(c2ccc3c(=O)c(C(=O)O)cn(-c4nccs4)c3n2)C[C@@H]1OC
  Tgondii IFNg: -63

CCCC(=O)O[C@@]1(C(=O)COC(C)=O)CC[C@H]2[C@@H]3C[C@H](F)C4=CC(=O)C=C[C@]4(C)[C@]3(F)[C@H](O)C[C@@]21C
  Tgondii IFNg: 8

COc1cccc(-c2ccc([C@@H](Oc3cc(-c4ccc(C[C@H](N)C(=O)O)cc4)nc(N)n3)C(F)(F)F)cc2)c1
  Tgondii IFNg: -29

COc1ccc(-c2cnc3c(-c4cccc5ncccc45)cnn3c2)cc1
  Tgondii IFNg: -23

Cc1cc2c(cc1CC(=O)c1sccc1S(=O)(=O)Nc1onc(C)c1Cl)OCO2
  Tgondii IFNg: -12

COc1ccccc1OCCNCC(O)COc1cccc2[nH]c3ccccc3c12 (configuration not stated)
  Tgondii IFNg: 7&-6

N#Cc1ccc2[nH]cc(CCCCN3CCN(c4ccc5oc(C(N)=O)cc5c4)CC3)c2c1
  Tgondii IFNg: -7

NS(=O)(=O)c1cc(-c2nn[nH]n2)c(NCc2cccs2)cc1Cl
  Tgondii IFNg: -13

Cn1c(=O)c2c(ncn2CCO)n(C)c1=O
  Tgondii IFNg: 4&52&13

CCN1CCC2(CC1)OC(=O)C(C)=C2C(=O)NCCCc1ccccc1
  Tgondii IFNg: 64

CC1(C)[C@@H](O[C@H]2O[C@H](C(=O)O)[C@@H](O)[C@H](O)[C@@H]2O[C@@H]2O[C@H](C(=O)O)[C@@H](O)[C@H](O)[C@H]2O)CC[C@@]2(C)[C@H]3C(=O)C=C4[C@@H]5C[C@@](C)(C(=O)O)CC[C@]5(C)CC[C@@]4(C)[C@]3(C)CC[C@@H]12
  Tgondii IFNg: 16

Nc1c2c(nc3ccccc13)CCCC2O (configuration not stated)
  Tgondii IFNg: 5

CC(=O)Nc1ncc([N+](=O)[O-])s1
  Tgondii IFNg: -3&21

Oc1cc2c(cc1O)[C@@H]1c3ccc(O)c(O)c3OC[C@]1(O)C2
  Tgondii IFNg: -8

CC[C@@H]1C(=O)N(C)c2cnc(Nc3ccc(C(=O)NC4CCC(N5CCN(CC6CC6)CC5)CC4)cc3OC)nc2N1C(C)C (some centres not stated)
  Tgondii IFNg: -68

CN(C)CC(=O)Nc1ccc2[nH]c(=O)c3ccccc3c2c1
  Tgondii IFNg: 2

COc1cc(NC(=O)c2ccc(-c3ccc(Cl)cc3)o2)cc(OC)c1
  Tgondii IFNg: -3

O=C(CS(=O)Cc1ccco1)NC/C=C\COc1cc(CN2CCCCC2)ccn1 (configuration not stated)
  Tgondii IFNg: 6

Cc1cc(C)cc(OCC2CNC(=O)O2)c1 (configuration not stated)
  Tgondii IFNg: 1&13

COc1cc2ncnc(Oc3cccc(NC(=O)Nc4cc(C(C)(C)C(F)(F)F)on4)c3)c2cc1OC
  Tgondii IFNg: ?

COCCCNC(=O)C1(C)CCC(=O)N1CCc1c[nH]c2ccccc12 (configuration not stated)
  Tgondii IFNg: -4

CNc1c2c(nn1C)CCCC2
  Tgondii IFNg: 8

CN(C)CCOc1ccccc1Cc1ccccc1
  Tgondii IFNg: 8

CC[C@@]1(O)C(=O)OCc2c1cc1n(c2=O)Cc2c-1nc1cc(F)c(C)c3c1c2[C@@H](N)CC3
  Tgondii IFNg: -86*

CCn1cc(C(=O)O)c(=O)c2cc(F)c(N3CCNCC3)nc21
  Tgondii IFNg: 12&-21

C#CCC(Cc1cnc2nc(N)nc(N)c2n1)c1ccc(C(=O)N[C@@H](CCC(=O)O)C(=O)O)cc1 (some centres not stated)
  Tgondii IFNg: -42

O=C(N[C@@H]1CC[C@@H](c2cccc(F)c2F)CN(CC(F)(F)F)C1=O)N1CCC(n2c(=O)[nH]c3ncccc32)CC1
  Tgondii IFNg: 8

O=C(Nc1ccccc1Br)N[C@@H]1CCN(c2ccc(C(F)(F)F)cn2)C1
  Tgondii IFNg: 4

CCc1cncnc1N1CCN(Cc2nc3ccc(C(F)(F)F)cc3[nH]2)CC1
  Tgondii IFNg: -49

C=CCNc1nc(NCC=C)nc(N2CCN(C(c3ccc(F)cc3)c3ccc(F)cc3)CC2)n1
  Tgondii IFNg: -72*

CC(C)(C)CC(=O)OCC(=O)[C@@]1(O)CCC2C3CCC4=CC(=O)C=C[C@]4(C)C3[C@@H](O)C[C@@]21C (some centres not stated)
  Tgondii IFNg: 6

O=C(Cn1ncc2c(N3CCN(c4ccccn4)CC3)ncnc21)N1CCN(c2ccccc2)CC1
  Tgondii IFNg: 26

c1cncc(CN2CCC(n3ncc4c(N5CCOCC5)nc(-c5ccc6[nH]ccc6c5)nc43)CC2)c1
  Tgondii IFNg: -68

NCCNC(=O)c1ccc(Cl)cn1
  Tgondii IFNg: 11&0

COc1c(O)cc2c(c1O)[C@H]1O[C@H](CO)[C@@H](O)[C@H](O)[C@@H]1OC2=O
  Tgondii IFNg: 12

OCc1ccccn1
  Tgondii IFNg: 11

O=C(Nc1ncc(SCCN2CCCC2)s1)[C@]1(c2ccc(S(=O)(=O)C3CC3)cc2)C[C@H]1C1CCCCC1
  Tgondii IFNg: -73*

CCC(=O)O[C@]1(C(=O)SCF)[C@H](C)C[C@H]2[C@@H]3C[C@H](F)C4=CC(=O)C=C[C@]4(C)[C@@]3(F)[C@@H](O)C[C@@]21C
  Tgondii IFNg: -14

Cc1cccc(Nc2cc(Cl)nc(SCC(=O)O)n2)c1C
  Tgondii IFNg: 14&-5

O=C(Nc1ccccc1)Nc1ccc(-c2ccc(C(=O)[C@@H]3CCC[C@@H]3C(=O)O)cc2)cc1
  Tgondii IFNg: 30

# As entered above.
# Under Tgondii IFNg, `O=C(Nc1ncc(SCCN2CCCC2)s1)[C@]1(c2ccc(S(=O)(=O)C3CC3)cc2)C[C@H]1C1CCCCC1` shows -73*
# Under Tgondii IFNg, `Cc1cccc(Nc2cc(Cl)nc(SCC(=O)O)n2)c1C` shows 14&-5

# Part of the list above, reformatted.
SMILES | Tgondii IFNg
COc1cc2ncnc(Oc3cccc(NC(=O)Nc4cc(C(C)(C)C(F)(F)F)on4)c3)c2cc1OC | ?
COCCCNC(=O)C1(C)CCC(=O)N1CCc1c[nH]c2ccccc12 (configuration not stated) | -4
CNc1c2c(nn1C)CCCC2 | 8
CN(C)CCOc1ccccc1Cc1ccccc1 | 8
CC[C@@]1(O)C(=O)OCc2c1cc1n(c2=O)Cc2c-1nc1cc(F)c(C)c3c1c2[C@@H](N)CC3 | -86*
CCn1cc(C(=O)O)c(=O)c2cc(F)c(N3CCNCC3)nc21 | 12&-21
C#CCC(Cc1cnc2nc(N)nc(N)c2n1)c1ccc(C(=O)N[C@@H](CCC(=O)O)C(=O)O)cc1 (some centres not stated) | -42
O=C(N[C@@H]1CC[C@@H](c2cccc(F)c2F)CN(CC(F)(F)F)C1=O)N1CCC(n2c(=O)[nH]c3ncccc32)CC1 | 8
O=C(Nc1ccccc1Br)N[C@@H]1CCN(c2ccc(C(F)(F)F)cn2)C1 | 4
CCc1cncnc1N1CCN(Cc2nc3ccc(C(F)(F)F)cc3[nH]2)CC1 | -49
C=CCNc1nc(NCC=C)nc(N2CCN(C(c3ccc(F)cc3)c3ccc(F)cc3)CC2)n1 | -72*
CC(C)(C)CC(=O)OCC(=O)[C@@]1(O)CCC2C3CCC4=CC(=O)C=C[C@]4(C)C3[C@@H](O)C[C@@]21C (some centres not stated) | 6
O=C(Cn1ncc2c(N3CCN(c4ccccn4)CC3)ncnc21)N1CCN(c2ccccc2)CC1 | 26
c1cncc(CN2CCC(n3ncc4c(N5CCOCC5)nc(-c5ccc6[nH]ccc6c5)nc43)CC2)c1 | -68
NCCNC(=O)c1ccc(Cl)cn1 | 11&0
COc1c(O)cc2c(c1O)[C@H]1O[C@H](CO)[C@@H](O)[C@H](O)[C@@H]1OC2=O | 12
OCc1ccccn1 | 11
O=C(Nc1ncc(SCCN2CCCC2)s1)[C@]1(c2ccc(S(=O)(=O)C3CC3)cc2)C[C@H]1C1CCCCC1 | -73*
CCC(=O)O[C@]1(C(=O)SCF)[C@H](C)C[C@H]2[C@@H]3C[C@H](F)C4=CC(=O)C=C[C@]4(C)[C@@]3(F)[C@@H](O)C[C@@]21C | -14
